Cruzain inh noDet: qHTS Assay for Promiscuous and Specific Inhibitors of Cruzain (without detergent); Cruzipain (Trypanosoma cruzi), P25779; purified cruzain, Z-FR-AMC fluorescence, no detergent; Potency, µM, for the others: max response, negative = inhibition, most hits filed as inhibitors; actives 2.3% (n = 200,000);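 note: plate controls were enzyme without inhibitor for no effect and buffer without enzyme for full effect; nearly all actives have a fitted effect of over 40% in size; top concentration of the series not given in the record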
Target sequence (P25779 123-467 limits assumed): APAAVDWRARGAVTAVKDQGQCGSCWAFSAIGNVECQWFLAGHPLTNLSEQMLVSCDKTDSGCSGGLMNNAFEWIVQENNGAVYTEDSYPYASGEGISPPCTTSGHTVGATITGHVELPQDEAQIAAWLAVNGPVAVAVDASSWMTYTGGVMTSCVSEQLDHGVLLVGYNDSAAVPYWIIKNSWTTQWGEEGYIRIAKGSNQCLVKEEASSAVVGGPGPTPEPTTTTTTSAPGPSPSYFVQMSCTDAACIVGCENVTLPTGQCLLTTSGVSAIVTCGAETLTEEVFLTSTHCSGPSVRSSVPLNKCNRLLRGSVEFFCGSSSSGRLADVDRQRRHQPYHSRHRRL
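Detergent-free condition (0.00005% Triton X-100) in acetate buffer pH 5.5 with DTT. 1.5 nM enzyme and compound were pre-mixed 15 min, then 2 uM Z-FR-AMC substrate added; reaction progress from fluorescence change between first and third reads (60 s).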
Lassa entry inh: qHTS for Inhibitors of binding or entry into cells for Lassa Virus; Lassa virus pseudotype entry inhibition, cell reporter; control for the full effect not named in the record; Potency, µM (top dose mostly 37.9 µM), for the others: top-dose activity change, negative = inhibition, usual class: inhibitors; actives 1.2% (n = 300,000); AID 540256, 2011; active means well fitted inhibition curve with a large enough effect; inconclusive means small, poorly fitted or top-dose-only effect, or effect the other way; inactive means flat fitted curve, though single readings scatter; tested in HEK293 cells; note: % is set by controls: 0 for no effect and ±100 for the full control effect; nearly all actives have a fitted effect of over 50% in size; luciferase read-out
Marburg entry inh: qHTS for inhibitors of binding or entry into cells for Marburg Virus; Marburg virus pseudotyped entry inhibition, cell reporter; control for the full effect not named in the record; about a third of the inactives were read at about 46 µM; Potency, µM (titrated, usually from 37.8 µM), for inactives: at the highest dose activity change, negative = inhibition, usual class: inhibitors; actives 1.8% (n = 300,000); active = well fitted inhibition curve with a large enough effect; inconclusive = small, poorly fitted or top-dose-only effect, or effect the other way; inactive = flat fitted curve, though single readings scatter; tested in HEK293 cells; about a fifth of its hits are not listed in these tables; note: % is set by controls: 0 for no effect and ±100 for the full control effect; luciferase read-out
SARS PLpro yeast: qHTS of Yeast-based Assay for SARS-CoV PLP | S. cerevisiae expressing SARS-CoV PLpro, growth rescue; control for the full effect not named in the record | Potency, µM (highest dose often 32.9 µM), without a hit: at the highest dose activity, positive = growth rescue | actives 0.19% (n = 330,000) | AID 485353, 2010; active means well fitted rising curve with a large enough effect; inconclusive means small, poorly fitted or top-dose-only effect; inactive means no such curve, though single readings can be large or run the other way; note: 0% is about no effect; nearly all actives have a fitted effect of over 55% in size; growth read by luminescence after 48 h
StopGo reporter: High Throughput Screening for Foot and Mouth Disease Virus Antivirals; human cells with a luciferase reporter of 2A StopGo recoding; control for the full effect not named in the record; Potency, µM (doses to about 57.9 µM), without a hit: top-dose signal change, negative = less light; actives 1.2% (n = 410,000); AID 1159524, 2015; active = well fitted falling curve with a large enough effect; inconclusive = small, poorly fitted or top-dose-only effect; inactive = no such curve, though single readings can be large or run the other way; tested in HEK293T cells; note: % is set by controls: 0 for no effect and ±100 for the full control effect; nearly all actives have a fitted effect of over 45% in size; luciferase light after 4 h
NS1 function inh: qHTS Assay for Inhibitors of Influenza NS1 Protein Function. S. cerevisiae slowed by influenza A NS1, growth recovery by OD600. actives 0.4% (n = 270,000). Potency, µM (doses to about 46.1 µM), for the others: at the top dose activity, positive = more growth. AID 2326, 2010; active means well fitted rising curve with a large enough effect; inconclusive means small, poorly fitted or top-dose-only effect; inactive means no such curve, though single readings can be large or run the other way; note: nearly all actives have a fitted effect of over 50% in size
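Recovery from NS1-induced slow growth read by OD600 in budding yeast switched to galactose assay medium (pH 6.0, -URA) at 1:100 dilution. Compound 23 nl per well; the matching strain lacking NS1 serves as control.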
Cruzain Triton: qHTS Assay for Promiscuous and Specific Inhibitors of Cruzain (with detergent); AID 1478, 2009; Cruzipain (Trypanosoma cruzi), P25779; Potency, µM, without a hit: max response, negative = inhibition, actives largely listed as inhibitors; purified cruzain, Z-FR-AMC fluorescence, 0.01% Triton; actives 0.43% (n = 200,000);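 note: plate controls were neutral wells for no effect and buffer without enzyme for full effect; nearly all actives have a fitted effect of over 40% in size; top concentration of the series not given in the record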
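Enzyme 1.5 nM, Z-FR-AMC 2 uM, NaOAc 100 mM pH 5.5, DTT 5 mM, Triton X-100 0.01%; 15 min RT compound preincubation; kinetic ex360/em450, 60 s delta.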
RE007 growth inh: qHTS Assay for Inhibitors of the HIV-1 protein Vpr. S. pombe RE007 Vpr strain, BacTiter-Glo ATP luminescence, 24 h; control for the full effect not named in the record. Potency, µM (highest dose often 92.2 µM), inactives show at the highest dose activity change, negative = less growth. actives 0.21% (n = 360,000). AID 651644, 2012; active = well fitted falling curve with a large enough effect; inconclusive = small, poorly fitted or top-dose-only effect; inactive = no such curve, though single readings can be large or run the other way;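 note: % is set by controls: 0 for no effect and ±100 for the full control effect; nearly all actives have a fitted effect of over 50% in size; the assay follows cell death caused by Vpr and the record does not say whether a fall means rescue or toxicity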
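Fission yeast strain RE007, carrying one chromosomally integrated HIV-1 vpr copy, was seeded at OD 0.01 in PMG+AL medium with 23 nL pinned compound. After 24 h at 30 °C and 99% humidity, viability was read by BacTiter-Glo luminescence.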
The depositor's hits bear a star; ? = inconclusive; · = no result given; & = joins results of further samples; [ ] = another dose, or the depositor's remark. Unless noted, calls come from the whole dose curve; as a rule, active = well fitted curve in the direction sought with a large enough effect; inconclusive = small, poorly fitted or top-dose-only effect, or another doubt; inactive = no such curve, though single readings can be large; an effect the other way counts as inactive or inconclusive. Potency is the fitted concentration of half-maximal effect.

SMILES	Cruzain inh noDet	Lassa entry inh	Marburg entry inh	SARS PLpro yeast	StopGo reporter	NS1 function inh	Cruzain Triton	RE007 growth inh
O=C1CCCN1CN(C(=O)c1ccc2c(c1)OCO2)c1ccc(F)cc1	-8%	-12%	-3%	2%	11%	2%	0.1%	10%
COc1ccc(C(=O)OCC(=O)Nc2cccc(S(=O)(=O)N3CCCCCC3)c2)cc1[N+](=O)[O-]	·	9%	-1%	·	-27%	·	·	-2%
CCOc1c(OC)cccc1C1CC(=O)Nc2cc3c(cc21)OCCO3 (stereo not drawn)	4%	·	·	6%	?	-2%	-4.4%	16%
COc1ccc2nc(NC(=O)CN3C(=O)NC4(CCCC4)C3=O)sc2c1	·	-17%	-6%	-1%	10%	·	·	-2%
CC(OC(=O)c1cccc(S(=O)(=O)N2CCN(C)CC2)c1)C(=O)Nc1ccc(C(N)=O)cc1 (stereo not drawn)	·	13%	-35%	-2%	-4%	·	·	2%
O=C(CN1C(=O)NC2(CCCCC2)C1=O)N(Cc1ccco1)Cc1cccs1	·	-3%	-1%[46.1 µM]	-9%	-10%	·	·	19%
CCSc1nnc(NC(=O)C(CC)(C(F)(F)F)C(F)(F)F)s1	-2%	13µM*	?	-16%	?	-152%	-4.5%	-7%
CCOCCCNC(=O)C1c2ccccc2C(=O)N2CCc3ccccc3C12 (stereo not drawn)	-9%	13%	-2%	-2%	14%	-3%	-0.8%	8%
CCc1ccc(Sc2cc(C(=O)NCCCOC(C)C)c3ccccc3n2)cc1	?	?	·	·	-8%	·	-1.4%	·
COc1ccc(CNC(=O)[C@H](C)N2C(=O)N3CCc4c([nH]c5ccc(OC)cc45)[C@@]3(C)C2=O)cc1	·	·	·	-3%	-24%	3%	·	8%
CC(C)N=C(NS(=O)(=O)c1cccs1)c1ccccc1	·	·	·	7%	1%	-4%	·	11%
CCOCCCNC(=O)C(c1ccc(C)cc1)N(Cc1cccs1)C(=O)CNC(C)=O (stereo not drawn)	?	0%	?	17%	-14%	-2%	2.6%	3%
COc1ccc(NC(=O)C(Sc2nnc(-c3ccncc3)n2-c2ccccc2C)c2ccccc2)cc1Cl (stereo not drawn)	-17%	-27%	?	-9%	19%	28%	-2.4%	-12%
COC(=O)c1ccc(NC(=O)CC2Nc3cc(C)c(C)cc3NC2=O)cc1 (stereo not drawn)	-1%	?	12%[46.1 µM]	·	?	·	-4.3%	·
CN(CC(=O)Nc1cccc(F)c1)C(=O)c1cc2c(s1)CCCCC2	·	9%	1%[46.1 µM]	4%	-26%	·	·	1%
Cn1c(O)c(C=NCC2CCNCC2)c(=O)n(C)c1=O	-1%	·	·	5%	·	6%	1.1%	·
COc1ccc(NN=Nc2ccc([N+](=O)[O-])cc2)cc1	·	?	?	6%	44%[activator]	-6%	·	0%
Cc1cc(-c2ccccc2)nc(Cl)c1C#N	-9%	5%	0%	-16%	-19%	-4%	-7.5%	-26%
CC1(C)NC(=O)N(CCSc2ccc(Cl)cc2)C1=O	15%	6%	3%	1%	-12%	-6%	1.0%	6%[3.69 µM]
CCOc1cccc(Oc2ncccc2C(=O)/C(C#N)=C/N(C)C)c1	0%	4%	1%	-10%	-11%	8%	3.8%	-2%
Cc1ccc(OCc2n[nH]c(=S)n2-c2ccccc2)cc1C	·	?	-3%[46.1 µM]	0%	9%	-8%	·	1%
CN(CC(=O)Nc1ccccc1C(F)(F)F)Cc1c(O)ccc2ccccc12	·	0%	?	-4%	-11%	2%	·	-16%
O=C(CNc1ccccc1N1CCCC1=O)Nc1cc(C(F)(F)F)ccc1-n1cncn1	·	4%[46.1 µM]	2%	3%	-3%	·	·	7%
O=C(NCCc1cccc(Cl)c1)c1ccc(OC2CCN(Cc3ccccn3)CC2)cc1	·	·	·	-1%	28µM*	-3%	·	-3%
Cc1ccc(NC(=O)C2CCN(S(=O)(=O)c3ccc4c(c3)NC(=O)C(C)S4)CC2)cc1C (stereo not drawn)	·	?	?	-1%	?	28%	·	-4%
Cc1ccc(C)c(Cn2c(C(C)O)nc3ccccc32)c1 (stereo not drawn)	17%	14%	-1%	1%	0%	-3%	-0.3%	6%
CCOC(=O)C1=C(COC(=O)CNC(=O)c2ccc(Cl)cc2Cl)NC(=O)NC1C (stereo not drawn)	·	0%[46.1 µM]	-5%	-6%	14%	·	·	-18%
CCC(C)NCCOCCOc1ccc(Cl)cc1Br (stereo not drawn)	·	?	?	-7%	-10%	2%	·	-3%
O=C(/C=C(/c1ccc(Cl)cc1)n1cncn1)c1ccccc1	-6%	1%	?	-24%	-12%	-19%	-2.5%	-7%
CC(=O)Oc1ccc2c(=O)c(-c3nc4ccccc4s3)coc2c1	·	1%	?	5%	-48%	·	·	1%
COc1ccc(Cc2nnn(CC(=O)O)n2)cc1	-5%	3%	-7%	4%	3%	9%	3.6%	-1%
NS(=O)(=O)c1ccc(S(=O)(=O)N2CCN(C3CCCC3)CC2)cc1	·	0%	17%[46.1 µM]	1%	-11%	10%	·	9%
Cc1ccc(Cl)cc1N1CCN(C(=O)CN2C(=O)COc3ccc(S(=O)(=O)N4CCC(C)CC4)cc32)CC1	-1%	-5%[46.1 µM]	8%[46.1 µM]	·	-16%	·	1.0%	·
Cc1cccc(C(=O)NC2(C(F)(F)F)N=C(c3ccccc3)N(C3CCCCC3)C2=O)c1 (stereo not drawn)	-13%	4%[46.1 µM]	0%[46.1 µM]	·	-28%	·	-0.2%	·
CCOC(=O)c1cc(OC(=O)c2cc(OC)cc(OC)c2)n(-c2ccccc2)n1	12%	3%[46.1 µM]	17%[46.1 µM]	·	2%	·	-5.3%	·
O=C(O)C1=NN(c2c(F)c(F)cc(F)c2F)C(=O)CC1	·	15%	0%[46.1 µM]	0%	0%	3%	·	1%
O=C(Nc1nc(-c2ccccn2)cs1)C1CC(=O)N(c2ccc3c(c2)OCCO3)C1 (stereo not drawn)	-17%	-3%	?	0%	-26%	1%	2.0%	1%
CCOc1ccc(NC(=S)N/N=C(\C)Cc2ccc(OC)cc2)cc1	-17%	?	-1%	?	-4%	25%	-29%	17%
CCCCC1NC(=S)N(C2CCCCC2)C1=O (stereo not drawn)	-7%	1%	-2%	-21%	-15%	-12%	-6.8%	-27%
CC(=O)c1cc2c(cc1NC(=O)c1ccc(C)cc1)OCO2	?	9%	9%	-16%	·	-2%	-1.8%	·
CCc1nc2c(c(=O)[nH]1)C1(CCCC1)Cc1ccccc1-2	-6%	-2%	-9%	2%	·	5%	-2.1%	7%
CCN1C(=NCc2ccc(OC)cc2)N[C@@H](CCc2ccccc2)[C@H](C(=O)NCc2ccc(OC)cc2)[C@H]1C	·	·	?	2%&-7%	-23%	?	·	-5%
c1ccc2c(-c3[nH]ncc3CNCCCn3ncc4ccccc43)cccc2c1	·	?	?	0%	?	5%	·	-11%
Cc1cccc(NC(=O)Cn2c(O)c(N=NC(N)=S)c3ccccc32)c1	·	?	?	1%	12%	3%	·	10%
CCc1ccc(C2c3c(-c4ccccc4O)n[nH]c3C(=O)N2Cc2ccncc2)cc1 (stereo not drawn)	18%	?	?	·	-20%	·	-1.9%	·
CCCCNC(=O)[C@H]1N2C(=O)c3c(ccc(OC)c3OC)C2SC1(C)C (stereo partly drawn)	·	·	·	1%	6%	1%	·	-24%
CCN(C(=O)COC(=O)Cc1coc2cc(C)ccc12)c1c(N)n(Cc2ccccc2)c(=O)[nH]c1=O	·	5%	25%	3%	-12%	·	·	-1%
N#CC1=C(S)N=C(N)C(c2nc(-c3ccccc3)cs2)C12CCCC2 (stereo not drawn)	?	1%	-21%	3%	41%[activator]	22%	-0.8%	17%
Cc1ccc(Oc2ncccc2/C=N/O)cc1	0%	23%	-18%	7%	-19%	28%	1.8%	2%
COc1ccc([N+](=O)[O-])cc1N(CC(O)CN1CCOCC1)S(=O)(=O)c1ccccc1 (stereo not drawn)	·	?	1%[46.1 µM]	2%	31%[activator]	12%	·	-15%

The listing continues.
SMILES	Cruzain inh noDet	Lassa entry inh	Marburg entry inh	SARS PLpro yeast	StopGo reporter	NS1 function inh	Cruzain Triton	RE007 growth inh
O=C(/C=C/Nc1ccc(F)cc1Br)c1ccccc1	?	2µM*	?	-1%	2.8µM*	9%	-4.3%	3%
CCOC(=O)c1c(C)[nH]c(CCC(=O)Nc2c(Cl)cc(OC)cc2OC)c1C	-12%	?	·	·	-26%	·	-0.9%	·
CC(=O)N1c2ccc(S(=O)(=O)N3CCC(C(=O)N4CCN(c5ccccc5)CC4)CC3)cc2CC1C (stereo not drawn)	·	·	·	-4%	?	-6%	·	-12%
O=C(NCC1COc2ccccc2O1)C1CCCN(S(=O)(=O)c2cccc3nsnc23)C1 (stereo not drawn)	5%	26%	?	1%	?	-25%	1.0%	7%
COc1ccc(NC(=S)NNC(=O)C(C)n2nc(C)c([N+](=O)[O-])c2C)cc1 (stereo not drawn)	-3%	0%	-24%	-3%	19%	4%	2.5%	4%
Cc1ccc(-c2nnn(CC(=O)NC(=O)NC3CCCCC3)n2)cc1	·	-9%	-6%	-1%	4%	·	·	-9%

Limited to StopGo reporter (three entries from above):
Molecule	StopGo reporter
Cc1cccc(C(=O)NC2(C(F)(F)F)N=C(c3ccccc3)N(C3CCCCC3)C2=O)c1 (stereo not drawn)	-28%
CCOC(=O)c1cc(OC(=O)c2cc(OC)cc(OC)c2)n(-c2ccccc2)n1	2%
O=C(O)C1=NN(c2c(F)c(F)cc(F)c2F)C(=O)CC1	0%

Random draw from the library (roughly 4.6% active in at least one column).
